Bioassay records: PubChem BioAssay, Center for Chemical Genomics, University of Michigan
TAR Tat displ: TAR RNA-Tat peptide displacers, HIV-1, primary screen, biochemical, FRET, FAM/TAMRA-labeled Tat. hit rate 0.6% among 100,000. z-score (test concentration not listed). AID 1259389, 2018. HIV-1 TAR RNA, Tat peptide displacement FRET; hits give high values;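 note: score is relative to mean and SD of negative controls; some compounds called inactive have numbers as strong as hits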
CDC25B CDK2 inh: primary biochemical HTRF screen for blockers of M-phase inducer phosphatase 2 binding to CDK2/cyclin A | P30305+P24941 | HTRF CDC25B-CDK2/CyclinA binding, anti-His/anti-Flag; hits give high values | z-score (concentration not given with the values) | hit rate 0.72% among 94,000 | AID 1259370, 2018;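 note: score is relative to mean and SD of negative controls; strong numbers were not always called active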
An asterisk follows results filed as active; . = not tested or not shown.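 Rule for the calls: active = z-score from 3 up in half or more of its runs; inactive = the rest.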

molecule	TAR Tat displ	CDC25B CDK2 inh
O=C(NCC(c1cccs1)S(=O)(=O)c1ccc(F)cc1)C(=O)NC1CC1 (stereo not drawn)	1.5	.
Cc1ccccc1C1Nc2ccc3ncccc3c2C2=C1C(=O)CC(C)(C)C2 (stereo not drawn)	.	-1
O=C(Nc1nc(-c2nc3ccccc3s2)cs1)c1c(F)cccc1F	0.76	.
NC(=O)c1cc(S(=O)(=O)N(Cc2ccco2)C2CCCCC2)cs1	0.83	.
N#C/C(=C\NCc1cccnc1)S(=O)(=O)Cc1ccc(Cl)cc1	.	-1.7
COc1ccc(-c2nnc3ccc(SCC(=O)NC4CCCC4)nn23)cc1	.	0.16
CCOc1cc(-c2ccc(OC(=O)c3ccc(OC)cc3)c(OC)c2)cc(=O)c2c(C)oc(C)c12	-0.41	-1.8
COc1ccc(OC)c(S(=O)(=O)Nc2cc3c(cc2C)n(C)c(=O)n3C)c1	0.13	.
Cc1nn(C)c(C)c1-n1nncc1C	.	-1.6
CSc1ccc(C=C2C(=O)OC(C)(C)OC2=O)s1	.	0.72
CCc1cc2c(N3CCN(c4ccccn4)CC3)ncnc2s1	0.81	.
CC1CCCCN1C(=O)C1CCCN(S(=O)(=O)c2ccc3c(c2)oc(=O)n3C)C1 (stereo not drawn)	0.47	1.2
O=C(Nc1c(C(=O)N2CCN(c3ccc(F)cc3)CC2)oc2ccccc12)C1CCCC1	0.53	.
Cc1ccc(-c2c(Nc3ccc(F)cc3C)c(=O)c2=O)cc1	0.07	.
CCc1cc(Nc2ccc(OC)cc2)n2ncnc2n1	0.17	-0.27
COc1ccccc1NC(=O)c1ccccc1NS(=O)(=O)c1ccc(C)cc1	.	-2.3
CCOC(=O)c1c(C)[nH]c(C)c1S(=O)(=O)N1CCCc2ccccc21	1	.
Cc1cc(O)c(C=O)c(O)c1C(=O)O	-0.58	.
CC1CCCCN1CCCN1C(=O)c2cc3sccc3n2CC1(C)C(=O)NC1CCCCC1 (stereo not drawn)	1.9	-0.69
Cc1c(-c2nc(-c3ccccc3F)no2)nnn1-c1ccc(F)c(Cl)c1	0.85	.
CCCN1C(=O)C(O)(CC(=O)c2ccc(CC)cc2)c2cc(Br)ccc21 (stereo not drawn)	.	-0.98
Cc1cc(C)n(-c2nc3ccccc3nc2Nc2ccc3[nH]c(=O)[nH]c3c2)n1	-5.8	-0.36
COCCn1cnc2scc(-c3ccc(Cl)cc3)c2c1=O	1.5	0.32
COc1cccc(C2CC(=O)N3CN(c4ccccc4)CSC3=C2C#N)c1OC (stereo not drawn)	1.7	3.5*

Quoted at random: five compounds from above.
molecule	TAR Tat displ	CDC25B CDK2 inh
COc1ccc(OC)c(S(=O)(=O)Nc2cc3c(cc2C)n(C)c(=O)n3C)c1	0.13	.
Cc1nn(C)c(C)c1-n1nncc1C	.	-1.6
CCOc1cc(-c2ccc(OC(=O)c3ccc(OC)cc3)c(OC)c2)cc(=O)c2c(C)oc(C)c12	-0.41	-1.8
CCOC(=O)c1c(C)[nH]c(C)c1S(=O)(=O)N1CCCc2ccccc21	1	.
NC(=O)c1cc(S(=O)(=O)N(Cc2ccco2)C2CCCCC2)cs1	0.83	.

Structures above with an aryl thioether with sulfur outside any ring, in the order listed:
molecule	TAR Tat displ	CDC25B CDK2 inh
COc1ccc(-c2nnc3ccc(SCC(=O)NC4CCCC4)nn23)cc1	.	0.16
CSc1ccc(C=C2C(=O)OC(C)(C)OC2=O)s1	.	0.72

Next section
molecule	TAR Tat displ	CDC25B CDK2 inh
O=C(CSc1n[nH]c(=O)n1C1Cc2ccccc2C1)N1CCOCC1	.	-1.6
CCC1(CC)Cc2ccccc2-c2[nH]c(=O)n(C3CCCC3)c(=O)c21	1.1	0.31
COc1ccc(N2C(=O)N(c3ccc(OC)cc3)C3CS(=O)(=O)CC32)cc1 (stereo not drawn)	3.6	0.19
CCOC(=O)C1=C(C)Nc2nc(SCC(C)C)[nH]c(=O)c2C1c1ccc(C(=O)OC)cc1 (stereo not drawn)	-1.6	0.63
COc1cccc(OCC(O)CNC(C)(C)CC(C)(C)C)c1 (stereo not drawn)	0.68	-1.4
Cc1ccc2scc(N3CCCCC3C)c(=O)c2c1 (stereo not drawn)	-0.13	.
O=C1c2cccc3cccc(c23)C(=O)N1c1ccc2ncccc2c1	.	-0.72
Cc1c(C(=O)NCC2CCCO2)oc2ccc3c(c12)C(=O)CC(C)(C)O3 (stereo not drawn)	.	-2.1
COc1cc(OC)c(NC(=O)CCS(=O)(=O)c2ccc3c(c2)oc(=O)n3C)cc1Cl	1.4	.
C=C(C)COc1ccc2c(=O)c(Oc3ccc(C(=O)OCC)cc3)coc2c1	1.8	-1.1
Oc1ccccc1-c1nc(=S)c2c([nH]1)Oc1ccccc1C2	-2.3	0.08
COC(=O)Cc1c(C)nc2nc(-c3cccnc3)[nH]n2c1=O	0.76	0.53
O=C(Cn1cccc1)Nc1ccc(F)cc1F	-0.24	-1.2
CCCc1nc(C)cc(N2CCc3ccccc3C2)n1	-1.1	-0.94
CCCCn1cc(S(=O)(=O)c2ccccc2)c(=O)c2cc(F)c(N3CCCCC3)cc21	-0.25	.
c1ccc2c(c1)nc(NCc1ccc3c(c1)OCO3)n1cnnc21	-0.7	.
Cc1csc2nc(CSc3nnc(-c4ccccc4F)o3)cc(=O)n12	-0.54	-1.9
COC(=O)CNC(=O)Cn1cnc2sc(C)c(S(=O)(=O)N3CC(C)CC(C)C3)c2c1=O (stereo not drawn)	.	0.28
Cc1cc(C)cc(-n2nnc(-c3nc(-c4ccc5c(c4)OCO5)no3)c2N)c1	-0.63	.
O=C1CC(c2cccs2)c2c(n[nH]c2-c2ccccc2)N1 (stereo not drawn)	-0.49	-0.06
O=C(Cc1ccccc1)NC(CCC(=O)OCc1ccccc1)C(=O)NCCO (stereo not drawn)	.	-3.6
CCOc1c(NC2CC2)c(=O)c1=O	0.49	.
C=CCc1ccc(OCCn2c(CN3CCOCC3)nc3ccccc32)c(OC)c1	1	-0.33
O=S1(=O)C[C@H](NC2CCCC2)[C@@H](S(=O)(=O)c2ccc(Cl)cc2)C1	-0.15	-2.5

Given with values under each structure: part of the list above.
Values in the order – TAR Tat displ	CDC25B CDK2 inh
Cc1csc2nc(CSc3nnc(-c4ccccc4F)o3)cc(=O)n12
    -0.54	-1.9
O=S1(=O)C[C@H](NC2CCCC2)[C@@H](S(=O)(=O)c2ccc(Cl)cc2)C1
    -0.15	-2.5

(cont.)
molecule	TAR Tat displ	CDC25B CDK2 inh
COc1ccc(C(=O)COC(=O)c2cc(-c3ccc(C)cc3)nc3c(C)cccc23)cc1	.	-2.4
CC(C)(C)OC(=O)N[C@@H](Cc1ccccc1)C(=O)NNC(=S)Nc1ccc(F)c(Cl)c1	.	-1
CCC12CN3CC(CC)(CN(C1)C3C1CCOC(C)(C)C1)C2=O (stereo not drawn)	0.57	-0.51
CCCCn1cc(S(=O)(=O)c2ccc(Cl)cc2)c(=O)c2cc(OC)ccc21	1.2	0.02
O=C(Nc1ccc(Br)cc1)c1c(O)c2cccc3c2n(c1=O)CCC3	0.99	.
O=C1COc2cc(-c3c(Nc4ccc(F)c(Cl)c4)c(=O)c3=O)ccc2N1	-0.02	.
C=CCn1c(-c2sc3nnc(-c4ccccc4)c(-c4ccccc4)c3c2N)n[nH]c1=S	.	-1
CSc1ncnc2sc3c(c12)CCCC3	4.7	-1.5
CCCn1c(SCC(=O)O)nc2c1c(=O)[nH]c(=O)n2C	0.71	-2.5
CC1CN(S(=O)(=O)c2ccc3c(c2)NC(=O)CCS3)c2ccccc2S1 (stereo not drawn)	-0.34	.
Cc1nn(C(C)C(=O)NC2CCCCC2)c(=O)c2nn(-c3ccccc3)c(C)c12 (stereo not drawn)	-0.04	.
CN1C(=O)c2cc(NC(=O)c3ccncc3)ccc2N2CCN=C12	0.29	.
Cc1oc(-c2ccccc2)nc1CN1N=NC2C(=O)N(c3ccc(F)cc3)C(=O)C21 (stereo not drawn)	-0.11	.
Cc1nn(-c2nc3ccc(Br)cc3s2)c2c1C(c1cc(F)ccc1F)CC(=O)N2 (stereo not drawn)	1.4	.
O=c1c(-c2ccccc2)c1-c1ccccc1	-0.48	-1.5
CCOC(=O)C1CCN(C(=O)c2cc3sc(C)cc3n2C)CC1	0.18	-0.53
CCC(O)c1nc2ccccc2n1Cc1cccc(Cl)c1 (stereo not drawn)	-0.44	-1.8
CCSc1nn2c(=O)c(C)nnc2s1	3.4	-0.86
O=C1c2ccccc2C2(O)Nc3nc4nonc4nc3NC12O (stereo not drawn)	.	-2.3
CCOC(=O)c1c(SC)nc2c(Cl)cccc2c1Sc1cccs1	.	-1.2
COc1ccc(OCCn2c(C(C)N3CCCCC3)nc3ccccc32)cc1 (stereo not drawn)	0.64	1.6
O=C(OCc1cc(=O)n2ccsc2n1)c1ccc(NS(=O)(=O)c2ccc(Cl)cc2)cc1	0.36	.
C=CCOc1ccc(C(=O)Nc2nonc2-c2ccc(Cl)cc2)cc1	0.26	0.36
COc1cc(OC)c2c(=O)cc(-c3ccccc3)oc2c1	0.77	.
COc1ccc(CN2C(=O)c3cccnc3C2=O)cc1S(=O)(=O)NCc1ccco1	1.4	.
Cc1nc(SCc2cc(=O)c3c(C)ccc(C)c3[nH]2)n[nH]1	2.8	.
COc1ccc(Cc2nnc(SCC(=O)NC(C)C)n2-c2ccc(F)cc2)cc1OC	.	-0.96
CCN1CCN(C(c2ccc(OC)cc2)c2sc3nc(C)nn3c2O)CC1 (stereo not drawn)	.	-2
Cc1cc(C)c(S(=O)(=O)NCc2cccnc2)c(C)c1N(C)S(C)(=O)=O	0.76	-1.6
O=C(CCS(=O)(=O)c1ccc2c(c1)NC(=O)CO2)Nc1ccccc1Cl	3.3	.
COCc1nn2cc(-c3cccc(Br)c3)nc2s1	1.6	-1.4
Cc1ccc(S(=O)(=O)Nc2c(Cl)cccc2Cl)c(C)c1F	.	-0.49
O=C(O)c1cc([N+](=O)[O-])ccc1Sc1cccs1	.	3.5
CNC(=O)C1CCC(Cn2c(=O)c3sccc3n(CC(=O)NC(C)C)c2=O)CC1 (stereo not drawn)	0.64	.
CC1CCC2C(=O)N(c3cccc4ccccc34)C(=O)C2C1 (stereo not drawn)	-1.3	-0.36
O=C(CSc1nc2ncccc2o1)Nc1ccc(S(=O)(=O)N2CCOCC2)cc1	2.1	.
CCOC(=O)c1c(-c2ccccc2)c2oc3ccccc3c2[nH]c1=O	0.85	0.22
CS/C(Nc1ccccc1)=C(/C#N)C(=O)c1cc(-c2ccccc2)c(C(F)(F)F)s1	.	-2.1
Cc1ccc(S(=O)(=O)N2CCCC2c2cccs2)cc1 (stereo not drawn)	-0.85	0.5
O=c1c2nccnc2nc(SCc2ccc(Cl)cc2)n1CC1CCCO1 (stereo not drawn)	0.78	-1.6
O=C(Nc1c(C(=O)Nc2ccc(Cl)cc2)oc2ccccc12)c1cc(=O)c2ccccc2o1	2.3	-1.1
Clc1cccc(N2CCN(c3nn4cnnc4c4ccccc34)CC2)c1	-1.9	-1.6
CC1=C(C(=O)Nc2ccc(Br)cn2)C(c2ccc3c(c2)OCO3)C2=C(CCCC2=O)N1 (stereo not drawn)	1.9	-1.1
c1ccc(-c2nnc3sc(C4COc5ccccc5O4)nn23)cc1 (stereo not drawn)	2.7	-1.1
CCOC(=O)C1=C(C)Nc2nnnn2C1c1cccnc1 (stereo not drawn)	-0.56	-0.81
CCn1nccc1C1CCCN1S(=O)(=O)c1cc(C)c(C)cc1C (stereo not drawn)	0.05	-2
Cc1cc(N2CCN(c3ccccc3F)CC2)n2cnnc2n1	0.02	-0.74
Cc1cc(C)c(-c2c(Nc3ccc(F)c(Cl)c3)c(=O)c2=O)cc1C	-2.2	.
Cc1ccc(O)c(-c2n[nH]c3c2C(c2cccc(O)c2)N(CCCOC(C)C)C3=O)c1 (stereo not drawn)	1.6	-0.17
O=C(Nc1cccc(F)c1)C1CCCN(S(=O)(=O)c2ccc3[nH]c(=O)oc3c2)C1 (stereo not drawn)	-1.9	.
Cc1c(Cc2ccccc2Cl)c(=O)[nH]c2nc3ccccc3n12	1.2	0.74
CC1CN(C2=NCCN2S(=O)(=O)c2cc(C(F)(F)F)cc(C(F)(F)F)c2)CC(C)O1 (stereo not drawn)	.	-0.44
CC(C)NC[C@H](O)COc1ccc(CC(N)=O)cc1	.	-0.21
CCOC(=O)c1nc(N)c(=O)n(-c2ccc(C)cc2)n1	.	-7.1
CC(C)(C)S(=O)(=O)/C(C#N)=C/c1ccc(F)c(Cl)c1	.	-1.6
Cn1cccc1Cc1nnc(SCC(=O)Nc2cccc(F)c2)n1C	-0.38	-1.9
Cc1nc2c(c(C)nn2C(C)(C)C)c(C)c1CCC(=O)N1CCN(C(=O)c2ccco2)CC1	0.03	-0.38
Cc1ccc2c(c1)C(O)(CC(=O)c1ccc(C(C)C)cc1)C(=O)N2 (stereo not drawn)	-0.77	0.67

Compounds as they come; overall some 0.97% were active at least once.
